BJeLR viability = BJeLR cell viability loss; 0.17% of 300,000 active; BJeLR (HRASV12) viability, CellTiter-Glo ATP luminescence, 48 h; reference of the scale not given here; inhibition, % (no concentration beside the values); AID 1554;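 active = replicate mean above 50%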;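 note: 50 nL library stock added to about 25 µL; numbers are from one replicate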
PrP UTR inh = inhibition of PrP 5' UTR reporter expression; cell-based PrP 5' UTR mRNA reporter, plate reader; inhibition, % (test concentration not listed); 0.35% of 340,000 active;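 active = every replicate at 50% or more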;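 note: 0 = median of the neutral control wells; tested in H4 reporter cells; numbers are from one replicate; inactives centre near -14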
Sa ugtP lethal = compounds lethal to S. aureus RN4220 ugtP deletion mutant | OD600 growth, 16 h; some inactives read as strong as hits | growth inhibition, % (no concentration beside the values) | 0.54% of 330,000 active | AID 1259309;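 active = z-score under -3 and OD600 up to 0.15 on both plates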;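 note: plate controls were untreated wells for no effect and antibiotic for full effect; wells of about 80 µL received 100 nL stock; the first replicate is given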
Bead autofluor = counter-screen for toxin protease inhibitors: compound fluorescence | 3.1% of 360,000 active | fluorescence intensity (no concentration beside the values) | AID 624483 | compound autofluorescence counterscreen, microsphere flow cytometry; stronger effect = higher value;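 active = at least 3 SD above the mean of all compounds, about 16000 in these data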;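 note: 100 nL of 1 mM stock went into each well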
Mtb hypoxia inh = reduces hypoxia-regulated biosensor signal in M. tuberculosis | 0.1% of 300,000 active | fluorescence inhibition, % (no concentration beside the values) | M. tuberculosis hypoxia-regulated fluorescent reporter, fluorescence;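 active = 35 to 45% if threefold the growth effect, above 45% if 1.5-fold the growth effect; inactive = the rest, general growth blockers included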;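 note: wells of about 50 µL received 100 nL stock; 0% = vehicle wells and 100% = reference inhibitor wells; whole bacteria with a GFP reporter of the hypoxia response; strong numbers were not always called active; many hits fall short of the cut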
Sa RN4220 lethal = S. aureus RN4220 growth inhibition; OD600, 16 h; inhibition, % (no concentration beside the values); 0.33% of 330,000 active;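 active = z-score of -3 or lower and OD600 up to 0.18 on both plates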;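 note: plate controls were untreated cells for no effect and reference antibiotic for full effect; stock transfer was 100 nL into about 80 µL; one replicate is shown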
Mtb hypoxia inh growth = recorded beside Mtb hypoxia inh, whose call it bears; growth inhibition, %; measured here: M. tuberculosis growth (absorbance);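 0% = vehicle and 100% = reference antibiotic; read after six days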
Active calls of the source: *; . = no result given. An unsorted share of the library, and some 4% of all compounds hit somewhere here.

cpd | SMILES | PrP UTR inh | Bead autofluor | Mtb hypoxia inh | Mtb hypoxia inh growth | BJeLR viability | Sa RN4220 lethal | Sa ugtP lethal
1 | Cc1ccc(O)c(NC(=O)c2onc(C)c2Cl)c1 | -51 | 3225 | 2 | -1 | -4 | 7.1 | -9
2 | CCCCCCSC1=C(C#N)C(c2ccc(C)o2)CC(=O)N1 (stereo not drawn) | -26 | 13099 | 7 | 3 | 2 | 15 | 15
3 | COc1ccccc1N1CCN(C(=O)CSc2ncnc3c2cnn3-c2ccc(C)c(C)c2)CC1 | . | . | 0 | 7 | 22 | 6.8 | 3
4 | CCOc1ccc(Oc2cc(N)cc([N+](=O)[O-])c2)cc1 | -23 | 2152 | 13 | 1 | 2 | 9.4 | 10
5 | Cc1ccc(S(=O)(=O)N(C)C)cc1NC(=O)COc1ccc(-c2nnco2)cc1 | -20 | 4915 | -10 | 15 | 11 | 7.5 | 2
6 | O=C(Cc1c[nH]c2ccccc12)N/N=C/c1cccc(F)c1 | -21 | 11320 | . | . | 8 | . | .
7 | CCN(CC)S(=O)(=O)c1cccc(C(=O)Nc2nncs2)c1 | -1 | 11436 | -2 | 0 | 3 | 3.5 | 26
8 | COc1ccccc1NC1=C(NC(C)=O)C(=O)c2ccccc2C1=O | -9 | 2522 | -13 | -6 | -3 | 21 | 4
9 | CN(c1ccccc1)c1ncnc2c1ncn2C | -13 | 3625 | -2 | 8 | . | 2.7 | 6
10 | CC(=O)NC1=C(Nc2ccc(N(C)C)cc2)C(=O)c2ccccc2C1=O | -66 | 5025 | . | . | 18 | . | .
11 | NC(=O)c1ccc(N2CCN(S(=O)(=O)c3ccccc3)CC2)c([N+](=O)[O-])c1 | -7 | 4448 | 8 | 4 | 8 | 5.2 | 18
12 | Nc1nc(NCC2CCCO2)nc(Nc2ccc(Cl)cc2)c1[N+](=O)[O-] (stereo not drawn) | -4 | 3884 | -1 | 1 | -3 | 5.2 | -12
13 | O=C(COc1ccc(-c2nnco2)cc1)NC1CCCc2ccccc21 (stereo not drawn) | 0 | 4493 | 5 | 7 | -4 | -0.1 | -3
14 | CCOCCCNC(=O)c1ccc(CS(=O)(=O)Cc2ccc(C)cc2)o1 | -11 | 6067 | -11 | -2 | 0 | -3.6 | 0
15 | COn1c(C)c(C)c2c3nonc3ccc21 | -13 | 4437 | 11 | 13 | . | 6.5 | 3
16 | COc1cccc(NC(=O)Cn2nnc(C(=O)NCc3ccc4c(c3)OCO4)c2N)c1 | -7 | 4300 | 6 | 5 | -7 | 1.5 | 2
17 | CC(C)CCNC(=O)c1c[nH]c2ccc(S(=O)(=O)N3CCOCC3)cc2c1=O | -18 | 5676 | 6 | 9 | 10 | 3.6 | 10
18 | O=C(NC1CC2CCC(C1)N2C(=O)NC1CCCCC1)NC12CC3CC(CC(C3)C1)C2 (stereo not drawn) | -5 | 3067 | 10 | -1 | -1 | -0.8 | 10
19 | O=C(COc1ccccc1Cl)Nc1ccc(CN2CCCCC2)cc1 | 66* | 4433 | 4 | 11 | -2 | 11 | 4
20 | Brc1ccc(Nc2nc(-c3cccnc3)cs2)cc1 | -66 | 3442 | 4 | -6 | -4 | -8.7 | 2
21 | COc1ccc(CNC(=O)c2sc(=S)n(-c3ccc(OC)cc3)c2N)cc1 | -16 | 19355* | 1 | 5 | 3 | -1.6 | -3
22 | Nc1c(C(=O)NCc2ccccc2)c2nc3ccccc3nc2n1CCCN1CCOCC1 | -3 | 2172 | 12 | 16 | -1 | -0.1 | -3
23 | NC(=O)c1ccccc1N1CCCCC1 | -13 | 6113 | 1 | 15 | 1 | 1.5 | 1
24 | CCc1nnc(NC(=O)c2ccc(OC)cc2OC)s1 | -22 | 9043 | -1 | 9 | -6 | -0.7 | 2
25 | CC1CC(C)(C)NC(=S)N1CCCC(=O)Nc1ccc2c(c1)OCCO2 (stereo not drawn) | -10 | 4438 | -6 | 8 | 4 | 3.9 | 2
26 | O=C(NCc1cccs1)C1CCN(C(=O)NCc2ccccc2)CC1 | -33 | 9532 | -7 | 0 | 3 | -0.2 | 0
27 | NNC(=O)c1csc(CS(=O)(=O)c2ccc(Cl)cc2)n1 | -28 | 5856 | -1 | -5 | -1 | -2.0 | 1
28 | Cc1cc(C)nc(SCCS(=O)(=O)Cc2ccccc2)n1 | -17 | 7732 | 11 | 13 | -3 | 4.7 | 7
29 | CCOc1ccc(NC(=O)C2CCN(S(=O)(=O)c3cccs3)CC2)cc1 | -2 | 3829 | 3 | 6 | -5 | -4.8 | -2
30 | CCOC(=O)Cn1nc(C)n(-c2ccccc2)c1=O | -28 | 22724* | 7 | 7 | 8 | 2.7 | 0
31 | O=C(Nc1ccc([N+](=O)[O-])cc1)c1cn(-c2ccccc2)nc1-c1cc2ccccc2o1 | 1 | 2518 | -4 | 2 | -1 | 0.8 | -17
32 | CC(C)(C)C(=O)Oc1cc(N)n(S(=O)(=O)c2ccc(F)cc2)n1 | -19 | 3466 | . | . | -1 | 6.5 | 9
33 | CSc1nc(N(C)C)nc(N(C#N)CCOC(C)=O)n1 | -1 | 2007 | 4 | 2 | 1 | -0.9 | -1
34 | N#CC1CN(C(c2ccccc2)c2ccccc2)C1 | -35 | 2879 | 17 | 1 | 2 | -0.9 | 7
35 | O=C(CS(=O)(=O)c1ccc(F)cc1)Nc1nnc(-c2cccs2)o1 | -9 | 5254 | 4 | 4 | -2 | 3.5 | 5
36 | C(=C\c1ccncc1)/c1ccccc1 | -20 | 4428 | 5 | 12 | -1 | 10 | 3
37 | CCN(CC)c1nc(N2CCN(C)CC2)nc2ccccc12 | -32 | 4246 | 15 | 7 | -4 | 0.8 | 2
38 | CCOCc1nnc(NC(=O)COC)s1 | -10 | 23993* | 12 | 14 | 5 | 4.9 | -1
39 | CCOc1ccc(S(=O)(=O)n2nc(C)cc2C)cc1 | -28 | 4139 | 15 | 6 | -3 | 4.2 | 7
40 | COc1cccc(CN2C(=NC(=O)C3CC3)SC3CS(=O)(=O)CC32)c1 (stereo not drawn) | -21 | 4591 | 6 | -7 | 7 | 1.5 | 4
41 | CCCCNC(=O)CCC(=O)Nc1ccc2nc(N3CCCCC3)cc(C)c2c1 | -48 | 5973 | 2 | 7 | -3 | 4.9 | 8
42 | CCSc1nc(C)nc2sc(C)c(C)c12 | -13 | 5152 | 12 | 4 | 1 | 11 | 2
43 | Oc1ccc(N=Cc2c(O)ccc3ccccc23)cc1 | -6 | 4041 | 9 | -2 | -8 | 6.4 | 7
44 | CCOC(=O)c1cc(CC)sc1NC(=O)c1cc(OCC)c(OCC)c(OCC)c1 | -10 | 15915 | -15 | -2 | 5 | -1.1 | -26
45 | Cc1oc(-c2cccc(C(F)(F)F)c2)nc1CN1CCN(c2ccccn2)CC1 | -26 | 4215 | 4 | 3 | -6 | -3.8 | -16
46 | CCc1ccc(NC(=O)CSc2nnc(Cc3cccn3C)n2-c2ccc(OC)cc2)cc1 | -17 | 6187 | . | . | -6 | 1.6 | 2
47 | CCOC(=O)C(=O)Nc1ccc(S(=O)(=O)N2CCOCC2)cc1OC | -18 | 5884 | -2 | -1 | 0 | 0.2 | 4
48 | O=C(O)CCN1C(=O)/C(=C/c2ccc(-c3nc4ccccc4s3)o2)SC1=S | -19 | 3505 | 22 | 6 | -1 | 99* | 1
49 | Cc1cccc(NC(=O)c2ccc(NCC3CCCO3)c([N+](=O)[O-])c2)c1 (stereo not drawn) | -17 | 2503 | 0 | -5 | 6 | 2.7 | 11
50 | CN1CCN(c2ccc([N+](=O)[O-])c(Sc3ccccn3)c2)CC1 | 8 | 4028 | 19 | 12 | -3 | 4.8 | 6

Next part:
cpd | SMILES | PrP UTR inh | Bead autofluor | Mtb hypoxia inh | Mtb hypoxia inh growth | BJeLR viability | Sa RN4220 lethal | Sa ugtP lethal
51 | CCN1C(=O)/C(=C2/C=Cc3ccccc3N2C)OC1=S | -86 | . | . | . | 6 | 8.3 | 4
52 | CC(=O)C1=C(C)N(Cc2ccccc2)C(=O)N[C@H]1CCc1ccccc1 | -8 | 4211 | . | . | -7 | . | .
53 | COc1ccc(OCCOCC(O)CN2CCOCC2)cc1 (stereo not drawn) | -21 | 2684 | 15 | 11 | -4 | -12 | -6
54 | CN(C)/C=C1\C(=O)Nc2ccccc21 | -4 | 2722 | . | . | -3 | 5.9 | -5
55 | CC1CN(c2cc(-c3ccccc3)c3ccccc3n2)CC(C)O1 (stereo not drawn) | 1 | 3749 | . | . | 18 | 1.9 | 12
56 | CCCc1nc([N+](=O)[O-])c(S(=O)(=O)c2ccccc2)n1CC(C)C | -22 | 2271 | 7 | -6 | 13 | 5.9 | 6
57 | CC(C)(Oc1ccc(Cl)cc1)C(=O)NCc1n[nH]c(=O)c2ccccc12 | -11 | 5458 | -3 | -6 | -2 | 3.7 | 3
58 | Cc1nc(C)c(C(=O)Nc2ccc(C)c(F)c2)o1 | -8 | 20369* | -2 | 0 | 2 | 2.2 | -3
59 | COc1ccc(C(=O)C(C)(C)NO)cc1 | -17 | 2587 | . | . | 1 | -2.8 | 11
60 | CCN(CC)c1ccc(/C=N\NC(N)=O)cc1 | 1 | 2487 | . | . | 3 | . | .
61 | COC(=O)CCSc1cc([N+](=O)[O-])cc2c1c(C1OCCO1)nn2-c1ccccc1 | -15 | 2047 | 6 | -3 | 3 | 12 | -2
62 | COc1ccccc1NS(=O)(=O)/C=C/c1ccccc1 | -14 | 10822 | 10 | 2 | -12 | 10 | 2
63 | CC1CCN(C(=O)c2[nH]cnc2C(=O)NC(CCCCNC(=O)OC(C)(C)C)C(=O)OC(C)(C)C)CC1 (stereo not drawn) | . | . | 19 | 5 | . | 3.7 | 1
64 | C[C@]12c3[nH]c4cc(-c5ccco5)ccc4c3CCN1C(=O)[C@@H](CC(=O)NCC13CC4CC(CC(C4)C1)C3)C[C@@H]2C(=O)N1CCCCC1 | -11 | 3887 | -2 | 2 | . | -13 | -28
65 | Cn1cc(C(=O)N/N=C/c2cccc(O)c2)ccc1=O | -23 | 2047 | . | . | 5 | . | .
66 | Cc1ccc(-c2nnc(NC(=O)Cc3ccc(F)cc3)o2)c(C)c1 | -22 | 5294 | 1 | -5 | -1 | 0.0 | 5
67 | O=C(CSc1nccc(=O)[nH]1)Nc1ccc(Oc2ccccc2)cc1 | -5 | 4043 | -2 | 4 | -1 | -17 | -4
68 | CN1C2CCC1C(C(=O)N1CCOCC1)=C(O)C2 (stereo not drawn) | . | . | 21 | 16 | . | 5.6 | 1
69 | CCn1nc(C(=O)NNC(=O)COc2ccc(OC)cc2)c2ccccc2c1=O | -21 | 7387 | 6 | 6 | -1 | 2.2 | 5
70 | CCOC(=O)N1CCC(NC(=O)c2ccc(OC)c(CN3CC(=O)N4CCCC4C3=O)c2)CC1 (stereo not drawn) | -8 | 3683 | 2 | 14 | -19 | 3.9 | 3
71 | CC(=O)c1cccc(N2Cc3ccccc3C2=NC(=O)CCl)c1 | -19 | 3535 | -1 | 5 | 4 | 3.8 | -11
72 | COc1ccc(NC(=O)C/C(C)=N/NC(=O)C(=O)NC2CCCCC2)c(OC)c1 | -15 | 2423 | . | . | 7 | . | .
73 | CCOC(=O)C1C2COc3cc(OC)ccc3C2N2C(=O)N(c3ccc(OC)cc3)C(=O)[C@@]12C (stereo partly drawn) | . | . | -6 | -5 | . | -0.3 | -13
74 | COc1ccc(CN(C)C2CCCCC2)cc1 | -41 | 10882 | 9 | 8 | 16 | 3.1 | 4
75 | O=C(O)c1ccc(Cn2cnc3c(=O)[nH]cnc32)cc1 | -15 | 3417 | 13 | 9 | . | 4.6 | 6
76 | COC(=O)c1sc2cc(=O)n(-c3cccc(C(F)(F)F)c3)nc2c1O | -13 | 3698 | -4 | -2 | 8 | 2.4 | 4
77 | CCO/C(C)=C1\N=C(c2ccc(Cl)cc2)OC1=O | -8 | 4091 | 10 | 11 | -8 | 4.0 | 6
78 | O=C(Nc1ccccc1C(=O)Nc1ccc2c(c1)OCO2)c1ccco1 | -16 | 3633 | 2 | 5 | 4 | 6.0 | -1

Screens as filed in PubChem.
